# High-throughput results from PubChem.
# ugtP null kill: compounds lethal to S. aureus RN4220 ugtP deletion mutant; 330,000 compounds, 0.54% hits; AID 1259309; growth inhibition, % (test concentration not listed); OD600 growth, 16 h; some inactives read as strong as hits;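 active = z-score under -3 and OD600 up to 0.15 on both plates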;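 also: plate controls were untreated wells for no effect and antibiotic for full effect; wells of about 80 µL received 100 nL stock; the first replicate is given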
# Autofluor counter: flagged as autofluorescent in microsphere protease counterscreen | compound autofluorescence counterscreen, microsphere flow cytometry; active compounds read high | fluorescence intensity (no concentration beside the values) | 360,000 compounds, 3.1% hits | AID 624483;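 active = at least 3 SD above the mean of all compounds, about 16000 in these data; inconclusive = too few beads counted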;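 also: 100 nL of 1 mM stock went into each well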
# Mtb hypoxia inh: reduces hypoxia-regulated biosensor signal in M. tuberculosis; AID 1159583; 300,000 compounds, 0.1% hits; fluorescence inhibition, % (test concentration not listed); M. tuberculosis hypoxia-regulated fluorescent reporter, fluorescence;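 active = 35 to 45% if threefold the growth effect, above 45% if 1.5-fold the growth effect; inactive = the rest, general growth blockers included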;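 also: wells of about 50 µL received 100 nL stock; 0% = vehicle wells and 100% = reference inhibitor wells; whole bacteria with a GFP reporter of the hypoxia response; strong numbers were not always called active; many hits fall short of the cut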
# RN4220 kill: kills Staphylococcus aureus RN4220 | S. aureus RN4220 growth, OD600, 16 h | inhibition, % (concentration not given with the values) | 330,000 compounds, 0.33% hits | AID 1259311;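 active = z-score of -3 or lower and OD600 up to 0.18 on both plates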;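 also: plate controls were untreated cells for no effect and reference antibiotic for full effect; stock transfer was 100 nL into about 80 µL; one replicate is shown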
# BJeLR lethal: BJeLR cell viability loss | AID 1554 | BJeLR (HRASV12) viability, CellTiter-Glo ATP luminescence, 48 h; reference of the scale not given here | 300,000 compounds, 0.17% hits | inhibition, % (no concentration beside the values);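 active = replicate mean above 50%; inconclusive = above 50% but judged a plate artefact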;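 also: 50 nL library stock added to about 25 µL; numbers are from one replicate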
# PrP UTR inh: suppresses PrP 5' UTR mRNA reporter expression; inhibition, % (test concentration not listed); 340,000 compounds, 0.35% hits; cell-based PrP 5' UTR mRNA reporter, plate reader;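 active = every replicate at 50% or more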;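 also: 0 = median of the neutral control wells; tested in H4 reporter cells; numbers are from one replicate; inactives centre near -14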
# Mtb hypoxia inh growth: also measured in Mtb hypoxia inh; calls as there; growth inhibition, %; measured here: M. tuberculosis growth (absorbance);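 0% = vehicle and 100% = reference antibiotic; read after six days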
# An asterisk follows results filed as active; ? = inconclusive; . = not tested or not shown.
SMILES,ugtP null kill,Autofluor counter,Mtb hypoxia inh,Mtb hypoxia inh growth,RN4220 kill,BJeLR lethal,PrP UTR inh
CCn1c(=O)c(C(=O)NCc2ccccc2OC)c(O)c2ccccc21,1,3625,-5,1,4.7,8,-50
O=c1[nH]c(CN2CCOCC2)nc2cc(Cl)ccc12,9,3897,1,-5,5.6,10,-24
CC(=O)NC(CC(=O)NCCCn1ccc2ccccc21)c1ccccc1 (configuration not stated),-1,5813,-14,-1,1.1,-12,1
CCOC(=O)C1=NN(C(=O)COc2ccccc2)C(O)(c2ccc(Cl)cc2)C1 (configuration not stated),.,4138,.,.,.,1,-22
Cc1c(Cl)cnc(NC(=O)CSc2nnc3ccccn23)c1Cl,-7,3566,-1,9,4.4,.,-13
Cc1c[nH]c2ccccc12,2,5978,-7,-8,2.5,.,-31
CCc1c(C)sc2nc(SCC(=O)Nc3cc(C)on3)n(CCOC)c(=O)c12,9,4777,.,.,2.4,-11,-6
CCCn1c(C)cc(C)c(C#N)c1=O,11,2514,8,5,4.1,6,-15
COc1ccc(N2CCN(C(=O)COC(=O)COc3cccc(C(F)(F)F)c3)CC2)cc1,6,4166,8,10,4.3,.,-4
Cc1ccc(NC(=S)NC(C)CCc2ccccc2)cc1C (configuration not stated),20,2065,14,4,-0.7,-13,-6
Clc1cccc(-c2cc3nc4c(c(N5CCOCC5)n3n2)CCCC4)c1,-7,7651,15,3,2.3,5,-11
COc1ccccc1OCc1ccc(C(=O)c2ccccc2)cc1,24,3646,-2,5,7.9,-6,-32
COc1cc(OC)cc(C(=O)Nc2cccc(N3CCCC3)c2)c1,-2,7124,-18,12,0.3,-3,-10
COc1ccc(C(=O)NCC(=O)OCC(=O)c2ccc3c(c2)NC(=O)CO3)cc1OC,1,3671,5,-1,0.4,-8,-13
O=C(NCc1cccnc1)c1sc2ccccc2c1Cl,-12,24841*,-4,2,-0.7,-6,-18
CCC(C(=O)Nc1cccc(S(=O)(=O)N(C)c2ccccc2)c1)c1ccccc1 (configuration not stated),-22,5948,6,2,-6.4,.,1
C=CCSc1nc(C)c(CC(=C)C)c(=O)[nH]1,2,4103,-1,7,4.5,17,-35
Cn1c(SCc2ccc(F)cc2)nnc1-c1ccccn1,-7,23620*,-2,7,-0.8,13,-31
NC(=O)c1ccc(S(=O)(=O)N2CCSCC2)cc1,3,3674,0,1,1.6,3,-24
Cc1nc(C)c(-c2ccc(SCC(=O)Nc3ccccc3)nn2)s1,-9,6294,4,8,0.4,-1,-27
CCOC(=O)Cn1cc(/C=N/NC(=O)c2ccc(C#N)cc2F)c2ccccc21,.,11351,.,.,.,-6,-25
Cc1ccc(NC(=O)CCCn2c(=O)oc3ccccc32)c(O)c1,0,6340,3,-7,1.7,-11,-15
O=S(=O)(c1ccc(Cl)cc1)N1CCC(N2CCCCCC2)CC1,6,.,11,12,4.7,9,-16
O=[N+]([O-])c1cccc(Nc2c([N+](=O)[O-])ccc3nonc23)c1,9,2852,-6,-3,20,5,13
O=C(CSc1nnc(-c2ccc(Cl)cc2)n1-c1ccc(Cl)cc1)NN=Cc1ccco1,4,.,6,0,8.3,.,.
C/C(CC(=O)Nc1cccnc1)=N\NC(=O)C(=O)Nc1cccc(C)c1,.,1987,.,.,.,0,-26
Cc1sc(NC(=O)C2CCCCC2C(=O)O)c(C(N)=O)c1-c1ccc(C(C)(C)C)cc1 (configuration not stated),12,?,.,.,17,8,-10
CCc1ccc(CN(C(=O)COc2c(C)cccc2C)C2CCS(=O)(=O)C2)cc1 (configuration not stated),-10,6548,9,-3,2.6,33,-12
O=C(COC(=O)C1CCN(c2ccc(C(F)(F)F)cn2)CC1)c1cccc(Br)c1,2,4788,4,12,-2.8,7,-17
COc1cc(C(=O)NCCC(=O)NCc2ccc3c(c2)OCO3)cc(OC)c1OC,1,7978,4,1,0.8,.,-8

# The list goes on:
SMILES,ugtP null kill,Autofluor counter,Mtb hypoxia inh,Mtb hypoxia inh growth,RN4220 kill,BJeLR lethal,PrP UTR inh
CCCCCN(C(=O)CCC(=O)OCC(=O)N(C)C1CCCCC1)c1c(N)n(CCCC)c(=O)[nH]c1=O,3,5368,3,5,3.8,-9,1
COC(C(=O)Nc1ccnn1C1CCN(C(=O)c2ccc(C)cc2)CC1)c1ccccc1 (configuration not stated),7,5035,-7,-5,5.0,-2,-18
CN(Cc1cnn(C)c1)C(=O)c1ccc(OC2CCN(CCc3ccccc3)CC2)cc1,8,2543,9,7,8.6,-4,-12
O=C(CON=Cc1c(Cl)cccc1Cl)NNC(=O)c1ccc(Cl)cc1,-1,.,8,3,0.0,.,.
COc1ccccc1-n1c(C)c(C(=O)O)c2cc(OC)c3ccccc3c21,-16,3800,24,17,1.3,-9,-8
Cc1ccc(-c2nc(N=Nc3ccc(O)cc3)n[nH]2)cc1,-11,2553,-2,15,-0.7,7,-33
COc1cc(/C=C/c2nc(-c3ccccc3O)n[nH]2)cc(OC)c1OC,-11,2463,-2,0,1.3,1,-61
O=c1oc2ccccc2c(N2CCCC2)c1CN1CCCC1,1,7868,-3,-1,-1.0,-9,-3
O=C(NCc1ccco1)c1cc2n(n1)C(C(F)(F)F)CC(c1ccc(Br)cc1)N2 (configuration not stated),-15,9150,-3,13,5.3,-2,-13
CCNC(=O)/C(C#N)=C/c1c(N2CC(C)OC(C)C2)nc2ccccn2c1=O (configuration not stated),.,9966,.,.,.,-11,19
CN(C(=O)c1cccc(NC(=O)c2cccs2)c1)c1ccccc1,0,4110,-4,-3,2.1,12,-8
CNC(=O)CSc1nnc(-c2ccco2)n1-c1cccc(C)c1,6,3413,13,-2,3.5,-7,3
CCc1ccc(C(=O)COC(=O)CNC(=O)CNC(=O)Cc2ccccc2)cc1,-8,8829,11,6,4.2,-9,-16
COc1ccc(C(=O)N2CCN(Cc3ccccc3[N+](=O)[O-])CC2)cc1,3,3772,-4,-2,0.4,2,-9
O=C1NC(=S)N(c2cccc(Cl)c2)C12CCCCC2,-5,2072,5,10,5.9,-6,-24
CCn1c(C(C)NS(=O)(=O)c2ccc(Cl)cc2)n[nH]c1=S (configuration not stated),1,5706,9,2,2.0,-1,-11
Cc1nn(C(C)C(=O)NCC2CCCO2)c(C)c1[N+](=O)[O-] (configuration not stated),2,3887,17,6,0.1,10,-17
CC(=O)Nc1ccc(CN2CCN(CC=C(C)C)C(CCO)C2)cc1 (configuration not stated),14,3781,-5,0,2.7,0,-9
CSc1ccc(CN(C)Cc2nc3cc(C(F)(F)F)ccc3c(=O)[nH]2)cc1,1,2764,0,-4,2.4,6,0
Cc1ccc(-n2nc3c(c2NC(=O)CC(C)C)CS(=O)(=O)C3)c(C)c1,14,2697,4,1,2.2,1,5
CCC(C)NC(=O)C1c2ccccc2C(=O)N1Cc1cc(OC)ccc1OC (configuration not stated),-5,9008,1,2,1.9,3,-20
CCOc1cc(C)c(S(=O)(=O)Nc2ccc(F)cc2)cc1C,-22,10797,0,9,6.7,3,-6
CCC(C)(C)N=C(NC#N)Nc1cccnc1,-4,.,-2,4,-0.3,1,.
O=C(CC1CCCCC1)NCc1ccc(F)cc1,4,4103,.,.,3.9,8,-14
COc1ccc2oc(=O)c(C(=O)N3CCc4ccccc43)cc2c1,5,?,5,9,4.6,11,-8
O=C(NCCc1ccccc1)C1CCN(S(=O)(=O)c2cccc3nsnc23)CC1,0,4215,.,.,0.8,2,-8
Cc1ccccc1OCC(O)Cn1c(NCCN(C)C)nc2c1c(=O)n(C)c(=O)n2C (configuration not stated),6,5172,.,.,0.8,2,-3
CCOC(=O)c1c(CSc2ccc(C)cc2)oc2ccc(O)cc12,67,1960,-3,6,-13,4,-8
CCOC(=O)C(Cc1ccccc1)C(=O)Nc1ccccc1C (configuration not stated),-3,4616,4,12,1.4,-4,-5
CCOC(=O)Cn1c(=O)oc2cc(S(=O)(=O)N3CCN(C(=O)c4ccco4)CC3)ccc21,-5,2211,-1,9,1.3,-2,-15

# By substructure, those above containing a COOH group (2)
SMILES,ugtP null kill,Autofluor counter,Mtb hypoxia inh,Mtb hypoxia inh growth,RN4220 kill,BJeLR lethal,PrP UTR inh
Cc1sc(NC(=O)C2CCCCC2C(=O)O)c(C(N)=O)c1-c1ccc(C(C)(C)C)cc1 (configuration not stated),12,?,.,.,17,8,-10
COc1ccccc1-n1c(C)c(C(=O)O)c2cc(OC)c3ccccc3c21,-16,3800,24,17,1.3,-9,-8

# Additional compounds:
SMILES,ugtP null kill,Autofluor counter,Mtb hypoxia inh,Mtb hypoxia inh growth,RN4220 kill,BJeLR lethal,PrP UTR inh
O=C(c1ccc(-c2ccccc2)cc1)N1CCN(Cc2ccccn2)CC1,-3,3353,4,3,-17,.,-6
CCOC(=O)Cc1c(C)nc2cc(-c3ccc(Cl)cc3)[nH]n2c1=O,4,4470,8,8,3.5,1,-17
Cc1cccc2sc(NC(=O)Cn3c(C)csc3=O)nc12,-2,6027,-10,-4,1.1,.,-2
COc1cccc(NC(=O)N2CCCCCC2)c1,0,5094,11,11,1.0,-7,-31
C=CCn1c(NCc2cc(C)ccc2O)nc2ccccc21,-6,6010,8,16,-18,-4,-18
CSc1ccc(C2Nc3ccccc3-c3cc(C)nn32)cc1 (configuration not stated),-33,21584*,-6,-2,-6.9,1,-7
Cc1csc(NC(=O)C(Cl)c2ccccc2)n1 (configuration not stated) (tested in a mixture with another compound),9,3718,4,-2,2.0,9,.
O=C(CSCC(=O)NC1CCCC1)Nc1ccccc1,10,2434,10,10,2.3,-33,-16
O=C(O)CC(C(=O)Nc1ccc(Cl)cc1)N1CCCCCC1 (configuration not stated),0,5934,9,7,2.4,0,-29
Cc1nc2ncnn2c(C)c1CCC(=O)Oc1ccccc1,0,.,1,-8,2.0,-3,-20
Cc1cccc(OCC(=O)NNC(=O)Cn2c(=O)cnc3ccccc32)c1,2,5568,7,7,-0.1,-4,-13
Cc1cc(C=NNS(=O)(=O)c2ccc(F)c(Cl)c2)no1,1,.,-11,-14,6.3,.,.
Cc1cc(C)cc(NC(=S)N2CCC(N(C)CC3CCCO3)CC2)c1 (configuration not stated),2,4171,11,2,2.9,8,-2
Cc1nn(-c2ccccc2)c(N2CCCC2)c1C=NNC(=O)c1cc(-c2ccccn2)nc2ccccc12,12,.,4,1,1.4,.,.
Cc1ccc(CN(C)C(=O)CC2C(=O)NCCN2CC2CCCCC2)cc1 (configuration not stated),-3,4873,4,2,5.3,-3,-17
C=CCOc1ccc(C2NC(=O)c3ccccc3O2)cc1OCC (configuration not stated),2,3838,-3,0,-4.6,-2,-5
Cc1c(NC(=S)N/N=C/c2cc([N+](=O)[O-])ccc2O)c(=O)n(-c2ccccc2)n1C,.,4184,.,.,.,8,-14
C=CCN(CC=C)S(=O)(=O)c1ccc(C(=O)Nc2nnc(COC)o2)cc1,-10,2095,-5,-7,12,-2,5
CCN1CCN(C(CNS(=O)(=O)c2ccccc2)c2cccnc2)CC1 (configuration not stated),0,5535,2,8,1.3,0,-4
C=CCNc1nnnc2c1sc1nc(N3CCOCC3)c3c(c12)CCCC3,-1,4709,1,-6,0.3,5,-24
C/C(=N/Nc1ccc(F)cc1)c1ccc(Cl)s1,.,2133,.,.,.,8,-24
O=C(CCSc1ccc(Cl)cc1)N1CCN(c2ccc(O)cc2)CC1,.,4350,.,.,.,-17,-14
Cc1cc(C)c2c(c1)C(=NNS(=O)(=O)c1ccc(Br)cc1)CCC2,-10,.,9,1,2.8,.,.
O=C(C(=O)N1CCOCC1)c1cn(Cc2ccc(F)cc2)c2ccccc12,3,4275,-4,6,7.3,3,-3
C#CCOC(=O)c1ccc(-n2cncn2)nc1,4,3661,.,.,-1.0,-3,-23
Cc1cccc(N(CC(=O)N2CCCC2)S(=O)(=O)c2ccccc2)c1,1,10288,-5,2,4.5,-17,-10
O=[N+]([O-])c1ccccc1S(=O)(=O)n1nnc2ccccc21,0,2321,4,2,1.5,12,-44
O=C(COc1ccc(S(=O)(=O)NC2CCCCC2)cc1)NCCC1=CCCCC1,-2,3495,.,.,5.4,3,-4
